Screening results deposited in PubChem BioAssay by National Center for Advancing Translational Sciences (NCATS).
TRPML1 inh: qHTS for Inhibitors of the Human Mucolipin Transient Receptor Potential 1 (TRPML1); TRPML1-inducible cells, Ca2+ dye fluorescence, FDSS; active compounds read low; inhibition of EC80 agonist-evoked calcium signal; activity change, negative = inhibition, % (concentration not given with the values); AID 624415, 2012; actives 0.02% (n = 390,000); in the data active means activity change below about -50%; inconclusive means about -30% to -50%; inactive means above about -30%;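 also: stimulus is agonist 54-4 at its EC80 concentration; % is scaled to controls: 0 for no effect and ±100 for the full control effect; the text of the record puts the active cut at -80%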
Target sequence (Q9GZU1 whole entry, looked up): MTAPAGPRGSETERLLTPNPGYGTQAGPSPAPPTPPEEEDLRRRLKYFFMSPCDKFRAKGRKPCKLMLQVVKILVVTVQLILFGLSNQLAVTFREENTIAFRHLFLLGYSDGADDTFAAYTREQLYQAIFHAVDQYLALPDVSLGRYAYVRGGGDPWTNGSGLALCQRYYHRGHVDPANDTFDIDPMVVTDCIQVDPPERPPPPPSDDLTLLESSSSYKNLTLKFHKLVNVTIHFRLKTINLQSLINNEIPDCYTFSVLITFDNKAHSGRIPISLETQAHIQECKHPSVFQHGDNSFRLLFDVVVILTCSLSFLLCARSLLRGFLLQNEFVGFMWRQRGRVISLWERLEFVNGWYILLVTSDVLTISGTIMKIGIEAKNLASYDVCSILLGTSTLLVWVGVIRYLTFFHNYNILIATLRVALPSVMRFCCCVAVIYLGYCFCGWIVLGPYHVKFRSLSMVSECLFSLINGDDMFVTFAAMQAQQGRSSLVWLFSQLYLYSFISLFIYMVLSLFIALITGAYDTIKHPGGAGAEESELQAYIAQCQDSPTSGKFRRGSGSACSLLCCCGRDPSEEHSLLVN
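TRPML1-DL cells, Tet-induced overnight (~16 h, 37 °C) at 1,500 cells/well, were loaded with Ca8 no-wash dye plus quencher for 45-90 min at room temperature. Compounds were pinned during FDSS kinetic reading; agonist 54-4 at EC80 (4 uM final) then added.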
CtBP-E1A inh: qHTS Assay for Inhibitors of the CtBP/E1A Interaction. CtBP / adenovirus E1A interaction (AlphaScreen). AlphaScreen GST-E1A/His-CtBP binding, 1536-well; active compounds read low; control for the full effect not named in the record. activity change, % (concentration not given with the values). actives 0.49% (n = 340,000). AID 651724, 2012; in the data active means activity change below about -65%; inconclusive means about -30% to -65%; inactive means above about -30%; also: % is scaled to controls: 0 for no effect and ±100 for the full control effect
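AlphaScreen with 125 nM GST-E1A and 125 nM His-CtBP (5X stocks) in Tris pH 8.0, 300 mM NaCl, BSA, Tween 20, TCEP. Compounds preincubated 2 h at 37 deg C, then glutathione donor/nickel acceptor beads added for 1 h at 37 deg C in dark.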
TRPML1 agonist: qHTS for Agonists of the Human Mucolipin Transient Receptor Potential 1 (TRPML1). AID 624414, 2012. actives 0.12% (n = 410,000). activation, % (concentration not given with the values). Mucolipin-1 (Homo sapiens), Q9GZU1. TRPML1-expressing cells, Ca2+ dye fluorescence, FDSS; host cell line not named in the record; reference of the full effect not given here; in the data active = activation above about 50%; inconclusive = about 30% to 50%; inactive = below about 30%; also: 0% is about no effect; the text of the record puts the active cut at 80%
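Tetracycline-induced TRPML1-DL cells are seeded and incubated overnight before loading with a no-wash Ca2+ dye and quencher. Agonist activity is taken from the 110 s fluorescence read following compound pin-transfer on an FDSS, before EC80 54-4 challenge.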
D2 potentiator: Beta-Arrestin HTS for Positive Allosteric Modulators of the Human D2 Dopamine Receptor: Potentiators; D(2) dopamine receptor (Homo sapiens), P14416; DiscoveRx D2 beta-arrestin cells, luminescence, 90 min; 100% = 57 uM dopamine signal; potentiation, % (no concentration beside the values); actives 0.23% (n = 360,000); AID 624464, 2012; active = potentiation of 50% or more; inconclusive = 30% to 50%; inactive = 30% or less;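 also: compound concentration not given in the record; tested on top of an EC20 dose of dopamine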
Target sequence (P14416 whole entry, looked up): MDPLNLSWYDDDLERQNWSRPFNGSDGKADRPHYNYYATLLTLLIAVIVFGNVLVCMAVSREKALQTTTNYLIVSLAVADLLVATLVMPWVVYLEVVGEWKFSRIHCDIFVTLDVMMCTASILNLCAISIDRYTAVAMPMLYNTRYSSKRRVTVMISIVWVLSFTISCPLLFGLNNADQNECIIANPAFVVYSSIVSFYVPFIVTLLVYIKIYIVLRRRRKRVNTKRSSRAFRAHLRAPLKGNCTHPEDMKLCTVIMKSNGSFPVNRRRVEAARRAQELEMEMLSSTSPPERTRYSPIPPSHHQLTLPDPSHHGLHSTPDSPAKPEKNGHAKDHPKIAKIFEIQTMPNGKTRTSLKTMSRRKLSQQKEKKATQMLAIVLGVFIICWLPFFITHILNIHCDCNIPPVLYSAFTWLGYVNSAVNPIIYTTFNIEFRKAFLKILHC
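D2 cells co-treated with compound plus 50 nM dopamine (EC20) for 90 min at 37 deg C to detect potentiation. Beta-arrestin recruitment was read as enzyme-fragment luminescence after 1 h at ambient temperature. Full response was set by 57 uM dopamine.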
Six1-Eya2 inh: qHTS Assay for Inhibitors of the Six1/Eya2 Interaction. activity change, % (no concentration beside the values). actives 0.56% (n = 360,000). AlphaScreen GST-Six1/His-Eya2 binding, biochemical; active compounds read low; control for the full effect not named in the record. Homeobox protein SIX1 (Homo sapiens) + Protein phosphatase EYA2 (Homo sapiens), …. AID 651725, 2012; in the data active = activity change below about -65%; inconclusive = about -30% to -65%; inactive = above about -30%; also: % is scaled to controls: 0 for no effect and ±100 for the full control effect
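GST-Six1 + His-Eya2 (5X stock: 250/500 nM); Tris pH 8.0, 300 mM NaCl, 0.05% BSA, 0.02% Tween 20; GSH donor/Ni acceptor beads; 1 h 37 °C dark; AlphaScreen readout.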
TRPV1 PAM: HTS Assay for Compounds that Act as Potentiators of the Vanilloid Receptor 1 | Transient receptor potential cation channel subfamily V member 1 (Homo sapiens), Q8NER1 | TRPV1-expressing cells, Fluo-8 calcium influx, capsaicin EC20 potentiation; host cell line not named in the record; control for the full effect not named in the record | potentiation, % at 8.33 µM | actives 0.02% (n = 320,000) | AID 540277, 2011; active means potentiation above 80%; inconclusive means 30% to 80%; inactive means below 30%; also: 0% is about no effect
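Fluo-8 calcium influx in TRPV1-expressing cells, kinetic read (ex 480/em 520 nm). Compound added and read 3 min for agonist activity, followed by capsaicin at EC20 final and 2 min further read for enhancement.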
* marks the source's active call; other numbers are inactive results; ? = inconclusive; . = not tested or not shown; & = joins results of further samples.

smiles	TRPV1 PAM	D2 potentiator	TRPML1 inh	CtBP-E1A inh	TRPML1 agonist	Six1-Eya2 inh
COc1ccc(CCNC(=O)c2cc(-c3ccc(C)cc3O)n[nH]2)cc1OC	5	-6	-1	8	-0.4	-2
COc1ccc(NC(=O)N2CCCC2C(=O)Nc2cccc(C)c2C)cc1 (centres undefined)	-6	0	13	11	0.2	2
Cc1ccc(OCC(=O)N/N=C\c2ccc(O)c([N+](=O)[O-])c2)c([N+](=O)[O-])c1	16	-11	-11	-16	0.4	-8
O=C(O)C(Cc1ccccc1-c1ccccc1)C(=O)O	17	-20	-23	.	2.8	6
O=C(NCc1ccccc1)C1=C[C@@H](C2CCCCC2)C[C@@H](OCCCCO)O1	.	-6	1	-3	-0.3	-6
C=C1CCC[C@]2(C)C[C@H]3OC(=O)C(CN4CC(C)OC(C)C4)[C@H]3C[C@@H]12 (some centres undefined)	19	-1	.	2	.	0
CCN(c1ccc(NC(=O)COC(=O)C2CCN(c3ccc(C(F)(F)F)cn3)CC2)cc1)C(C)C	.	-1	-10	?	1.1	?
Cc1ccccc1Cn1nc(C)c(NC(=O)c2nc3n(n2)C(C(F)F)CC(C)N3)c1C (centres undefined)	-8	-3	-7	0	-1.0	-3
O=C(O)c1ccc2nc(CO)[nH]c2c1	2	-4	10	8	-0.2	-2
COc1ccc(CN2C(=O)C(CC(=O)NCc3cccc4ccccc34)CC(C(=O)N3CCOCC3)=C2C)cc1 (centres undefined)	.	-2	5	2	-0.3	-6
COc1ccc2ccccc2c1CNCCN1CCOCC1	13	-1	6	6	0.1	8
COc1c[nH]n(-c2ccccc2)c(=O)c1=O	.	-4	-21	1	1.9	22
O=C(O)C1CCc2sc3[nH]c(=S)n(-c4ccccc4)c(=O)c3c21 (centres undefined)	7	-16	10	4	0.1	-3
Cc1cc(C)n2cc(CSc3ncccc3C(=O)O)nc2n1	0	-28	-5	-2	-0.3	-1
O=C(Nc1ccc(Cl)cn1)C1CCCN1S(=O)(=O)c1ccccc1 (centres undefined)	-4	-3	7	0	-0.5	0
Cc1cnc(NC(=O)CSc2nnc(N)s2)s1	-4	-1	-5	2	0.3	7
O=C(NC(=S)NCc1ccccc1)c1ccccc1Br	11	-4	11	-2	3.3	-3
COc1ccc(-c2nc3n(n2)C(c2cccnc2)C(C(N)=O)=C(C)N3)cc1 (centres undefined)	-2	4	-4	-2	-0.5	-2
CC(C)CC(=O)Nc1ccc(-c2nnn(CC(=O)NCc3ccco3)n2)cc1	4	-1	-2	-22	0.2	-11
COc1cccc(NS(=O)(=O)c2ccc(-n3cccn3)cc2)c1	?	-6	7	0	-1.4	2
O=C(Nc1ccc(Cl)cc1)Nc1ccc(Br)cn1	10	-8	49	7	-0.4	3
CCN(CC)CCCNC(=O)N[C@@H](Cc1ccccc1)C(=O)O	-1	-2	1	5	0.4	12
CC(C)c1nnc(NC(=O)CCC(=O)NCc2ccc(F)cc2)s1	-6	4	1	0	-0.5	16
CCOC(=O)C1(C)CCCN(C(=O)c2ccc(N(C)C)cc2)C1 (centres undefined)	.	-2	.	0	-0.7	5
O=S(=O)(c1ccc2ccccc2c1)N(CC1CO1)c1ccccc1 (centres undefined)	-6	-1	0	7	1.1	-4

Three compounds drawn at random from the list so far:
smiles	TRPV1 PAM	D2 potentiator	TRPML1 inh	CtBP-E1A inh	TRPML1 agonist	Six1-Eya2 inh
O=C(O)c1ccc2nc(CO)[nH]c2c1	2	-4	10	8	-0.2	-2
COc1ccc(CCNC(=O)c2cc(-c3ccc(C)cc3O)n[nH]2)cc1OC	5	-6	-1	8	-0.4	-2
COc1ccc2ccccc2c1CNCCN1CCOCC1	13	-1	6	6	0.1	8

Going on with the list:
smiles	TRPV1 PAM	D2 potentiator	TRPML1 inh	CtBP-E1A inh	TRPML1 agonist	Six1-Eya2 inh
CCN(CC)S(=O)(=O)c1cccc(NC(=O)COC(=O)/C=C/c2ccco2)c1	5	-4	34	3	-1.5	-5
O=C1CCCC/C=C\C[C@H](CC(=O)N(CCO)Cc2ccccc2)C(=O)N[C@@H](c2ccccc2)CO1	.	-6	16	7	2.8	1
COC(=O)c1[nH]c2c(c1C)C(=O)CC(c1ccc(OC)cc1)C2 (centres undefined)	17	10	25	2	2.0	4
CCN(c1ccc2c(c1)OCO2)S(=O)(=O)c1cc(Br)cc2c1N(C(C)=O)CC2	-22	-9	-10	8	0.1	0
CC1(C)CC(=O)C=C(N=CC2=C(O)CC(C)(C)CC2=O)C1	-10	1	-4	10	-0.4	14
COc1ccc(-c2noc(CCC(=O)Nc3nc4ccccc4s3)n2)cc1	6	-2	-4	-1	-0.1	-5
COC(=O)c1sc(NC(=S)NC(=O)c2cccc(C)c2)nc1C	6	4	9	-4	-0.7	1
Cc1onc(-c2ccccc2Cl)c1-c1nc(-c2ccncc2)no1	-12	-12	-2	8	2.0	-2
O=C(CN1C(=O)S/C(=C/c2cccs2)C1=O)N1CCOCC1	-10	-6	-2	-10	0.5	5
COc1ccc(-c2nnc3ccc(SCc4ccccc4)nn23)cc1	-10	2	28	7	1.1	2
O=C(O)CNc1nc(Cl)ccc1[N+](=O)[O-]	6	-6	-2	-4	-0.3	-1
Nc1cccc(-c2cc3ccccc3oc2=O)c1	-7	-2	0	-25	2.5	-1
O=C(CSCCO)Nc1ccc(C23CC4CC(CC(C4)C2)C3)cc1	1	10	11	4	-0.3	0
CC(C)n1c(/N=C/c2c[nH]c3ccccc23)nc2ccccc21	10	-31	0	2	0.1	-6
CC1Oc2ccccc2N(CC(=O)NCc2cccs2)C1=O (centres undefined)	-52	-9	85	2	1.8	0
COc1ccccc1N1CCN(C(=O)c2c(-c3c(Cl)cccc3Cl)noc2C)CC1	0	4	40	2	1.8	0
Cc1occc1C(=O)Nc1cccc(C(=O)O)c1	-18	-14	-7	-1	0.1	1
CN(C)c1ccc(CN(C)C2CCCCC2)cc1	-10	-5	-9	9	-0.5	-15
CCN(CC1CCCN(CCc2cccc(OC)c2)C1)C(=O)c1ccc(COC)o1 (centres undefined)	-2	-8	3	1	-0.1	3
CCOC(=O)c1sc(NC(=O)C2CC(=O)N(c3ccc(OC)cc3)C2)nc1C (centres undefined)	-1	-7	32	-6	0.4	1
CCOC(=O)c1c(C)[nH]c(C)c1C(=O)COC(=O)[C@@H]1CCCN1S(=O)(=O)c1ccc(Cl)cc1	-7	7	0	-8	1.5	-17
O=C(CCN1CCC(c2ccc(Cl)s2)=N1)c1ccc(Cl)s1	-40	-17	4	.	5.4	-2
O=C1CSCC(=O)N1c1ccccc1	4	-1	-3	5	0.0	3
Nc1cc(=O)[nH]c(SCC(=O)Nc2cccc(S(=O)(=O)N3CCCCC3)c2)n1	.	0	19	-21	1.7	-14
CCOc1ccc(CNC(=O)c2nnc(CS(=O)(=O)c3ccccc3)o2)cc1OC	14	-7	-2	4	1.9	7

Among those listed so far, 7 have a Cl atom.
smiles	TRPV1 PAM	D2 potentiator	TRPML1 inh	CtBP-E1A inh	TRPML1 agonist	Six1-Eya2 inh
O=C(Nc1ccc(Cl)cn1)C1CCCN1S(=O)(=O)c1ccccc1 (centres undefined)	-4	-3	7	0	-0.5	0
O=C(Nc1ccc(Cl)cc1)Nc1ccc(Br)cn1	10	-8	49	7	-0.4	3
Cc1onc(-c2ccccc2Cl)c1-c1nc(-c2ccncc2)no1	-12	-12	-2	8	2.0	-2
O=C(O)CNc1nc(Cl)ccc1[N+](=O)[O-]	6	-6	-2	-4	-0.3	-1
COc1ccccc1N1CCN(C(=O)c2c(-c3c(Cl)cccc3Cl)noc2C)CC1	0	4	40	2	1.8	0
CCOC(=O)c1c(C)[nH]c(C)c1C(=O)COC(=O)[C@@H]1CCCN1S(=O)(=O)c1ccc(Cl)cc1	-7	7	0	-8	1.5	-17
O=C(CCN1CCC(c2ccc(Cl)s2)=N1)c1ccc(Cl)s1	-40	-17	4	.	5.4	-2

Additional compounds:
smiles	TRPV1 PAM	D2 potentiator	TRPML1 inh	CtBP-E1A inh	TRPML1 agonist	Six1-Eya2 inh
COC(=O)c1c(NC(=O)c2ccc(C)cc2)sc(Cc2ccccc2)c1C	4	-12	-15	5	-0.7	17
OCCC1CN(CC(c2ccccc2)c2ccccc2)CCN1C1CCCC1 (centres undefined)	-4	-20	-19	4	1.6	2
COc1ccc(C(CNC(=O)C(C)Oc2ccc(Br)cc2)N2CCCC2)cc1 (centres undefined)	1	-28	14	8	-0.5	-1
Cc1ccc(C(=O)c2sc3nc4c(cc3c2N)CCC4)cc1	-16	-8	-10	-5	1.9	3
Cc1cc(=O)[nH]c(N/N=C2/CCCC/C2=C\c2ccccc2)n1	-14	0	.	-7	.	-4
O=C(Nc1ccc(-c2nc3ncccc3o2)cc1)c1ccc([N+](=O)[O-])o1	-2	-3	18	-17	-0.1	-7
COc1ccc(C2=NS(=O)(=O)N(C)C(C(=O)NC(C)c3ccccc3)=C2)cc1 (centres undefined)	-12	-7	7&12	-4	-0.4&2.7	-7
Cc1ccc2c(C)nc(Nc3nc(CSc4nnnn4-c4ccccc4)cc(=O)[nH]3)nc2c1	?	3	-15	0	1.4	0
COc1ccc(Nc2nnc(SCC3CCCO3)s2)cc1 (centres undefined)	-23	-11	38	-2	0.5	-18
CCOc1cc(CNc2ccc(Br)cc2)cc(Br)c1OCC(=O)NC(C)(C)C	13	-13	7	0	-0.1	-10
Cc1ccc(C2CCN(C(=S)NC(C)(C)C)C2)cc1 (centres undefined)	-2	-18	37	0	0.0	3
CCOc1ccc(C(=O)CCC(=O)Nc2ccc(C)c(S(=O)(=O)N3CCCCC3)c2)cc1	4	5	-9	0	2.7	1
Cc1c(C(=O)N(C)C)sc2nc(-c3ccccn3)[nH]c(=O)c12	2	-1	11	-97*	-0.9	-89*
O=C(Nc1cccc(Cl)c1)C1CCCN(c2cnccn2)C1 (centres undefined)	14	-18	-19	.	1.0	-2
O=C(NC(=S)Nc1ccc(CN2CCOCC2)cc1)c1ccc(-c2ccc(Br)cc2)o1	9	-7	-20	5	0.0	-5
CC(=O)Nc1ccc(NC(=O)CCCc2ccccc2)cc1	5	-4	-12	-4	0.2	0
